A1 inh – inhibitors of the anti-apoptotic protein A1, read as caspase activation; MEF A1-2A-BIM cells, Caspase-Glo 3/7 luminescence, 3 h; percent of clofoctol response, vehicle zero; actives 0.066% (n = 330,000); caspase activation, % (no concentration beside the values); AID 2462;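 active = over half of replicate activation scores above 10%, or exactly half above 10 with the replicate mean above 10; inconclusive = replicate mean below 10 yet half the replicates above 10; inactive = over half of replicates below 10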;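 note: wells of about 30 µL received 50 nL stock; many hits fall short of the cut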
Vif A3G – inhibitors of Vif binding to APOBEC3G peptide, primary screen, biochemical, TR-FRET, GST-Vif 1-94, biotin-A3G peptide, dose response retest (AID 1117319); actives 0.57% (n = 260,000); inhibition, %, or IC50 in µM where a hit was titrated; TR-FRET GST-Vif / biotin-A3G peptide binding; higher % means a stronger effect; test concentration not given here; strong numbers were not always called active;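 active = above the screen mean plus three standard deviations and confirmed in dose response; inconclusive = results disagree or hit not tested in dose response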;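 note: Vif residues 1-94 fused to GST binding biotinylated APOBEC3G peptide 110-148; 0% = full assay without inhibitor and 100% = GST in place of GST-Vif; retest series ran down from 100 µM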
Calb FLC – affects C. albicans growth with fluconazole; growth inhibition, % (test concentration not listed); AID 1979; C. albicans CaCi-2 (fluconazole-resistant clinical isolate) + fluconazole, Alamar Blue growth, 48 h; actives 0.57% (n = 300,000);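 active = most replicates above 75%; inconclusive = exactly half above 75%; inactive = most below 75%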;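 note: all wells also contain fluconazole at 8 µg/ml as a sub-toxic cotreatment; 0% = median of DMSO wells and 100% = median of geldanamycin control wells; wells of about 8 µL received 7.5 nL stock; the first replicate is given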
AF4-AF9 inh – MLL-AF4/AF9 protein interaction inhibition; inhibition, % at 10 µM; AlphaScreen, biotin-AF4 peptide binding to FLAG-AF9; AID 651704; P42568; actives 0.47% (n = 350,000);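 active = every replicate reaching a set inhibition limit, whatever the replicate mean, cut at about 25% in these data; inconclusive = mean inhibition reaches that limit but some replicates miss it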;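 note: 0% = plate neutral control median and 100% = total signal loss; the record names both 10 and 1 µM as test concentration; the first replicate is given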
Target sequence (P42568 whole entry, looked up): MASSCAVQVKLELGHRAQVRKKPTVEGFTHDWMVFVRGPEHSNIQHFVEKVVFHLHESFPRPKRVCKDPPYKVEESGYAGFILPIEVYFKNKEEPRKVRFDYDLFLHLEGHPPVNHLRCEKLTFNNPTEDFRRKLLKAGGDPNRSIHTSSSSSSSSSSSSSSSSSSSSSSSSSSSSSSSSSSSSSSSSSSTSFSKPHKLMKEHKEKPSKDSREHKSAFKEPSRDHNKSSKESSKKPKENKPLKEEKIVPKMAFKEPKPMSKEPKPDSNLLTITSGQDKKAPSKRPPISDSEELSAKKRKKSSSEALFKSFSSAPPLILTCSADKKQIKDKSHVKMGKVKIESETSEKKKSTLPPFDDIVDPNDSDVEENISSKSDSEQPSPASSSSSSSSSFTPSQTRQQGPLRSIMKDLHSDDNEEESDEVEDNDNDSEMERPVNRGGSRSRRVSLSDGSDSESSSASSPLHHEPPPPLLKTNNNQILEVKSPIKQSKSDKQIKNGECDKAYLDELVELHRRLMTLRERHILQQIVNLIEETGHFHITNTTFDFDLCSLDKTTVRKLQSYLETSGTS
T cruzi inh – blocks replication of Trypanosoma cruzi; inhibition, % (concentration not given with the values); T. cruzi beta-gal in NIH3T3, luminescence, 90 h; actives 1.4% (n = 300,000);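 active = mean inhibition across valid replicates above about 55%, limit read from the data; inconclusive = mean below that limit but half or more replicates reach it; inactive = mean below it, under half of replicates reach it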;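 note: signal also drops with host cell toxicity which is not excluded here; 0% = plate median of DMSO wells and 100% = zero luminescence signal; higher percent means less beta-gal luminescence so fewer parasites; stock transfer was 50 nL into about 50 µL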
RanGTP-Impb inh – disruptors of Ran-importin-beta complex formation – biochemical, FRET, CFP-Ran, YFP-importin-beta, homogeneous, primary screen; cell-free CFP-Ran/YFP-importin-beta FRET ratio; inhibition, % (no concentration beside the values); actives 1.1% (n = 300,000); AID 2216;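 active = most replicates above 15%; inconclusive = exactly half above 15%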;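 note: 0% = DMSO wells and 100% = Ran loaded with GDP instead of GTP; wells of about 40 µL received 100 nL stock; the first replicate is given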
Beta apoptosis – beta cell apoptosis inhibition | INS-1E cytokine-induced death, ATP luminescence, 48 h; percent of positive-control rescue, neutral wells zero | protection from apoptosis, % (no concentration beside the values) | actives 0.8% (n = 300,000) | AID 435005;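 active = all replicates at 75% or more, or half of them and the mean; inconclusive = half reach 75% but not the mean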;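 note: 0% = cytokine-treated negative control wells and 100% = positive control rescue; higher means more ATP so stronger rescue from cytokine killing; wells of about 40 µL received 100 nL stock; the first replicate is given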
LANA-H2B inh – blocks KSHV LANA binding to histone H2A/H2B. actives 0.6% (n = 320,000). cell-free LANA-H2A/H2B peptide, fluorescence polarization. inhibition, % (concentration not given with the values). Q9QR71. AID 2629; in the data active = inhibition mostly above about 10%, no sharp cut-off; inactive = mostly below about 6.7%;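 note: stock transfer was 7.5 nL into about 10 µL; 0% = median of vehicle wells and 100% = median of positive control wells; one replicate is shown; the record names a cut of 25% in any replicate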
Numbers without * were called inactive; u = inconclusive; x = not tested or not shown. This is a random part of the collection, and some 4.3% of all compounds hit somewhere here.

SMILES	A1 inh	Vif A3G	Calb FLC	AF4-AF9 inh	T cruzi inh	RanGTP-Impb inh	Beta apoptosis	LANA-H2B inh
Cc1ccc(C)c(S(=O)(=O)N2CCCCC2CCNC(=O)C(=O)NCc2ccccc2)c1 (stereo not drawn)	1.3	-1%	2	0.5	13	1.3	8	x
Cc1cc2oc3ccc(NCCC4CCCN4C)cc3c(=O)c2cc1C (stereo not drawn)	0.4	x	-22	28*	36	-67	-5	1.1
Cc1ccc(N=Cc2nc(-c3ccc(C)cc3)oc2O)cc1	x	88%	-4	-1.0	0	8.4	x	x
Cc1cc(C(=O)Cn2nnc3ccccc3c2=O)c(C)n1-c1c(C)n(C)n(-c2ccccc2)c1=O	0.1	3%	10	x	1	4.6	-5	1.2
CCc1c(C)c2cc(Cl)c(O)c(CN3CCCC3)c2oc1=O	0.0	2%	6	-4.1	-5	u	-1	4.9
CCOc1cccc(NCc2cc3c(C(C)(C)C)nn(-c4ccccc4)c3[nH]c2=O)c1	0.6	-1%	u	-34	20	5.4	-6	-1.3
COc1ccc(NC(=O)CC2C(=O)N(c3cccc(OC)c3)C(=O)N2CCC(C)C)cc1 (stereo not drawn)	1.1	0%	6	x	-11	-0.1	4	-6.4
Cc1cccc2nc3c(nc12)-c1ccccc1C3=O	-0.9	-17%	17	-3.2	-1	-3.1	-4	7.2
O=C(c1ccccc1/S(=N/S(=O)(=O)c1ccccc1)N1CCOCC1)N1CCOCC1 (stereo not drawn)	-0.2	7%	0	x	-14	0.5	-1	-6.5
COc1cc(NC(=O)CC(C)n2ccnc2)cc(OC)c1 (stereo not drawn)	0.1	4%	8	1.2	-13	-0.2	-2	6.8
Cc1ccc(N=Cc2cc3c(cc2[N+](=O)[O-])OCO3)cc1[N+](=O)[O-]	-0.2	x	-2	0.0	12	20*	-4	-3.7
COc1ccccc1COn1c(=O)c(-c2ccco2)[n+]([O-])c2ccccc21	0.2	x	33	0.2	15	9.4	5	-11
COc1ccccc1NC(=O)CSc1nccc(-c2ccco2)n1	-0.4	x	x	-5.2	x	x	3	1.3
COc1ccc(NC(=O)N2CCCC(CNS(=O)(=O)c3cccs3)C2)c(C)c1 (stereo not drawn)	1.5	24%	-5	-0.4	-10	-1.9	-7	1.4
Clc1ccc(Nc2ncn[nH]2)cc1	-0.4	3%	22	x	-8	3.5	-4	2.3
N=C1/C(=C/c2ccc(OC(=O)c3ccco3)cc2)C(=O)N=C2SC=CN12	-0.4	0%	0	-5.2	-14	3.2	-3	-2.1
O=C1OC[C@@H]2CCCN2C(=O)[C@@H](CC(=O)N(CCO)Cc2ccccc2)C/C=C\CC[C@H]1Cc1ccc(F)cc1	1.4	x	x	-0.2	x	x	-4	-3.7
COc1ccc(CNC(=O)c2cc(-c3cc(C)cc(C)c3O)n[nH]2)cc1	0.4	3%	-8	4.5	12	u	-5	-4.2
Cc1ccc(C)c(N(C)S(=O)(=O)c2ccc3c(c2)oc(=O)n3C)c1	0.3	2%	10	-1.6	1	2.1	x	0.5
COCCNc1nnc(SCC(=O)c2ccc3c(c2)OCO3)s1	-0.4	3%	-7	x	-2	-0.5	2	0.9
CC(C)OCC(O)CN1CCC(Cc2ccccc2)CC1 (stereo not drawn)	-0.7	x	-12	1.3	12	-0.2	-3	-0.9
Cc1nnc(SCC(=O)Nc2nnc(SCc3cccc(Br)c3)s2)s1	0.1	x	u	x	-10	3.8	-4	5.1
CC(=O)c1cccc(NC(=O)c2cc(-c3ccncc3)nc3ccccc23)c1	0.9	x	x	-45	x	x	5	-0.2
Cc1ccc2nc(-c3ccc(NC(=O)CN4C(=O)c5ccccc5C4=O)cc3)sc2c1	4.1	x	-3	x	-9	1.2	-8	1.1
O=C(/C=C/c1cccs1)c1ccc(NC(=O)c2cccc(Br)c2)cc1	0.8	5%	6	x	10	2.8	4	-1.9
CC(C)NC(=O)COC(=O)c1ccc(Oc2ccccc2)cc1	-0.1	0%	15	x	6	0.7	0	3.4
Cc1ccc(C)c(N2CCN(S(=O)(=O)c3ccc4c(c3)C(C)(C)C(=O)N4C)CC2)c1	-0.2	-5%	14	1.3	38	-4.2	-3	2.4
CC(=O)Nc1ccc(Nc2cc(-c3ccccc3)nc3ncnn23)cc1	0.6	8%	-4	-3.7	-3	2.9	0	x
Cc1ccc(NC(=O)Cn2nnc(C(=O)NCc3ccccc3)c2N)cc1C	0.7	2%	-6	x	8	-14	0	11
O=C(Nc1ccc(N2CCOCC2)cc1)c1nc2ccccc2s1	-7.0	7%	-5	-2.3	-2	-2.0	1	1.0

Given with two lines to a compound: entries from further up
Order of results: A1 inh | Vif A3G | Calb FLC | AF4-AF9 inh | T cruzi inh | RanGTP-Impb inh | Beta apoptosis | LANA-H2B inh
Clc1ccc(Nc2ncn[nH]2)cc1
 : -0.4 | 3% | 22 | x | -8 | 3.5 | -4 | 2.3
N=C1/C(=C/c2ccc(OC(=O)c3ccco3)cc2)C(=O)N=C2SC=CN12
 : -0.4 | 0% | 0 | -5.2 | -14 | 3.2 | -3 | -2.1

Next records
SMILES	A1 inh	Vif A3G	Calb FLC	AF4-AF9 inh	T cruzi inh	RanGTP-Impb inh	Beta apoptosis	LANA-H2B inh
NC(=O)N/N=C\c1cccs1	-0.5	1%	0	-0.8	-18	-0.9	2	1.2
Cc1ccc(N(C)S(=O)(=O)c2cccc(C(=O)OCC(=O)N3CCCC(C)C3)c2)cc1 (stereo not drawn)	-0.6	-4%	x	-6.7	x	x	-3	1.0
CCOC(=O)/C(=C\c1c[nH]c2ccccc12)NC(C)=O	0.9	x	7	x	-19	-1.6	-4	1.9
CCOC(=O)c1[nH]cnc1C(=O)Nc1cccc(N)n1	0.5	6%	-3	x	-9	1.5	-4	3.0
Cc1cccc(-n2ccc(=O)c(C(=O)Nc3ccc(S(=O)(=O)N4CCOCC4)cc3)n2)c1	-0.1	x	1	2.5	-17	0.2	-3	1.9
Cn1cccc1/C=N/NC(=O)c1cccs1	-7.4	2%	-6	1.1	-10	0.3	-3	0.4
COC(=O)C1=C(C)NC(=S)NC1c1ccc(-c2cccc(Cl)c2)o1 (stereo not drawn)	-0.5	-2%	43	x	-2	-2.5	-3	5.8
CC(=O)NC1CC(C)(C)N(OC(C)=O)C(C)(C)C1	x	0%	1	x	-12	-2.9	x	x
CCOC(=O)N1CCN(C(=O)c2n[nH]c(=O)c3ccccc23)CC1	-1.5	-4%	-2	x	4	1.8	1	-2.5
Cc1ccc(S(=O)(=O)N2CC(O)CC2C(=O)OCc2nc3sc(C)c(C)c3c(=O)[nH]2)cc1 (stereo not drawn)	-0.1	x	2	x	-9	7.1	5	-0.4
CC1CCN(S(=O)(=O)c2cccc(-c3csc(-c4cccnc4)n3)c2)CC1	0.5	0%	-1	x	35	2.2	-5	-0.8
CCCNC(=O)CSc1nc2[nH]ncc2c(=O)[nH]1	-0.7	0%	u	-1.6	-3	0.0	0	0.2
O=C(CSc1nc2c(c(=O)n1-c1ccccc1)SCC2)N1CCN(c2ccccc2)CC1	0.2	26%	3	-0.6	10	-5.5	-2	-3.5
COc1ccc(Cl)cc1NC(=O)NC1CCCCC1	1.0	1%	-5	x	-1	-0.1	0	21*
CC1CN(c2ccnc3cc(Cl)ccc23)CC(C)O1 (stereo not drawn)	0.7	x	-2	1.2	2	-5.3	-3	4.9
O=C(NN=C1c2ccccc2-c2ccccc21)c1cccc(Br)c1	u	10%	-2	-3.6	54	-1.1	18	-11
CSCCC(NS(=O)(=O)/C=C/c1ccccc1)C(=O)N1CCC(C)CC1 (stereo not drawn)	-0.4	4%	-26	x	16	1.2	-4	-2.9
CC1CC(=O)C2=C(C1)OC(N)=C(C#N)C2c1coc2ccccc2c1=O (stereo not drawn)	0.4	4%	6	x	3	0.1	x	-0.8
Cc1cc(Cl)ccc1OCc1n[nH]c(=S)n1C1CCCCC1	-0.4	0%	-5	x	-1	-1.3	6	-3.2
COc1ccc(/C=N/n2c(-c3cccs3)n[nH]c2=S)cc1	-0.2	4%	22	x	-18	3.7	0	-4.8
NCCCCCC(=O)N/N=C/c1ccc2nccnc2c1	0.5	x	-3	11	-2	-3.6	-4	1.5
O=C(Nc1nccs1)c1nc[nH]c1C(=O)NCc1ccccc1	0.2	x	x	-1.2	x	x	-7	0.0
COc1ccc(S(=O)(=O)NCc2ccco2)cc1C(=O)N1CCOCC1	-0.2	x	7	-0.3	5	1.0	6	-1.5
O=C(COc1ccc2ccccc2c1)Nc1nccs1	-6.9	-1%	29	-2.0	-21	-1.4	1	-1.2
CC[C@@H](C)C(NC(=O)OC(C)(C)C)c1cn([C@@H](Cc2ccc(O)cc2)C(=O)N2CCN(C(=O)OC(C)(C)C)CC2)nn1 (stereo partly drawn)	1.6	x	6	x	35	0.8	-5	1.9
O=C(Nc1nc2ccccc2s1)c1ccc(OCC2CCCO2)cc1 (stereo not drawn)	1.3	x	5	3.7	5	0.8	-1	2.6
COc1cccc(CC(=O)Nc2ccc3c(c2)CCC3)c1	-0.2	x	6	1.3	-7	-0.5	1	0.4
O=C(CCC(=O)N/N=C/c1cc(Cl)cc(Cl)c1O)NCc1ccccc1	-0.1	13%	-17	-0.1	-17	43*	-2	-2.1
CC(=O)c1ccc(-c2ccc(C(=O)N(C)c3c(N)n(Cc4ccccc4)c(=O)[nH]c3=O)o2)cc1	-0.3	-11%	0	1.9	-11	-2.0	2	-2.0
CCNC(=O)N1CCN(C(=O)NCC)CC1	0.1	-6%	u	-0.2	1	-1.4	4	-2.7
CC1Cc2ccccc2N1C(=O)C1CCCN1S(=O)(=O)c1ccc(Cl)cc1 (stereo not drawn)	-0.4	1%	-10	x	8	1.4	-5	-0.8
CCOC(=O)c1c(C)[nH]c(C)c1S(=O)(=O)N1CCN(c2cccc(C)c2)C(C)C1 (stereo not drawn)	2.1	x	1	16	22	4.2	-6	-6.7
Cc1ccc(OCCNC(=O)CCc2nc3sc4c(c3c(=O)[nH]2)CCCC4)cc1	1.4	x	7	-0.6	-5	-2.9	-6	35*
COc1ccc(CCNC(=O)CSc2nn(-c3ccccc3)c(=S)s2)cc1	0.4	-5%	2	-18	2	1.2	-7	-5.9
CC(C)C(=O)Nc1ccc2nn(-c3ccc(F)cc3)nc2c1	-5.1	7%	-20	x	1	2.6	x	-12
C/C=C/C(=O)OCC(=O)NC(=O)NC(C)C	1.6	4%	0	x	-3	5.6	-6	-2.6
COc1ccccc1OCCSc1nnnn1C1CCCCC1	0.9	1%	0	x	13	2.0	-9	0.1
CC(Oc1ccc2ccc(=O)oc2c1)C(=O)NCCN1CCOCC1 (stereo not drawn)	-1.2	x	-4	-8.2	-15	4.3	5	-0.7
CN(CC(=O)Nc1ccc(Cl)c(C(F)(F)F)c1)C(=O)c1ccc(N2CCOCC2)c([N+](=O)[O-])c1	0.3	1%	-4	2.6	19	-2.9	7	-2.6
COc1cc(/C=N/NC(=O)CCn2c3ccccc3c3ccccc32)ccc1O	-0.7	18%	u	-1.4	3	-1.0	3	5.6
Cn1nc(C(C)(C)C)cc1C(=O)NCc1ccc(N2CCCC2=O)cc1	-0.1	9%	u	x	-8	-2.5	116*	-3.9
O=C1N=C(N2CCOCC2)S/C1=C\C=C/c1ccccc1	-2.8	-1%	-8	x	-4	0.7	x	2.8
